EPAC2 antag = human EPAC2 antagonism, validation; EPAC2 Rap1B BODIPY-GDP exchange, fluorescence; Potency, µM (top dose mostly 112 µM), for inactives: top-dose activity, negative = inhibition, most hits filed as inhibitors; hit rate 1.7% among 16,000; active = well fitted inhibition curve with a large enough effect; inconclusive = small, poorly fitted or top-dose-only effect; inactive = no such curve, though single readings can be large or run the other way;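 note: 100% = activation by cAMP agonist control; nearly all actives have a fitted effect of over 40% in size; the record reuses the description of the EPAC1 agonist screen; inactives centre near -10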
Target sequence (Q8WZA2 whole entry, looked up): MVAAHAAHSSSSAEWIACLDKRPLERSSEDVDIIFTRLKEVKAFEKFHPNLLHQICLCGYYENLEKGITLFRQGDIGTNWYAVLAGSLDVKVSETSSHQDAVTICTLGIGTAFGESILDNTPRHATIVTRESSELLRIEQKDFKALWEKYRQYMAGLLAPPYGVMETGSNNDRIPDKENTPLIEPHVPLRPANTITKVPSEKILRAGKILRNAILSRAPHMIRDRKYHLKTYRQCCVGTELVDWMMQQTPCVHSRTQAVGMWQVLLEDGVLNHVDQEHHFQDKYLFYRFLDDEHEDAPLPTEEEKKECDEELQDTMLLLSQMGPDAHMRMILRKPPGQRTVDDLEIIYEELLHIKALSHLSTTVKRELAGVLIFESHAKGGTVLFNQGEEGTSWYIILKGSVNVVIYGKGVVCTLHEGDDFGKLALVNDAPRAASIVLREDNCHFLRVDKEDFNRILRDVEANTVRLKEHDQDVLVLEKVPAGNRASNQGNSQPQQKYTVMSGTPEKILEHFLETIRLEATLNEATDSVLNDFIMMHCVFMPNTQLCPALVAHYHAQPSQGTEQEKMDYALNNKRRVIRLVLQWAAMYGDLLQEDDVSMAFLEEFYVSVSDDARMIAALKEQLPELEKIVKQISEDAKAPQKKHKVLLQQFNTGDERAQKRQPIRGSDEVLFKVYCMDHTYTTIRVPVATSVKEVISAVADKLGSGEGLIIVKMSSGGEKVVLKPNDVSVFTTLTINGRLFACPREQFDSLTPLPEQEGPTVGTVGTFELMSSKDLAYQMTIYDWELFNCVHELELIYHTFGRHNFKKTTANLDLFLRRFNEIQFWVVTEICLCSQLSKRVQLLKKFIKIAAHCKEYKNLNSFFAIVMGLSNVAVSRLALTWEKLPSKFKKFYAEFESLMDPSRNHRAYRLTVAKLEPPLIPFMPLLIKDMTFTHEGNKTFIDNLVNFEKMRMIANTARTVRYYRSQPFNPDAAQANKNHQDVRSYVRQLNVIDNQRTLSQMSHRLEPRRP
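Fluorescent exchange read-out: 100 nM EPAC2 with 250 nM RAP1B–BODIPY-GDP and 50 uM GDP; BODIPY-GDP release lowers fluorescence. Read at 480/540 nm every 5 min for 30 min at room temperature; normalized to 6.5 mM cAMP.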
Starred values were filed as active, the others as inactive; ? = inconclusive; & = joins results of further samples; ! = not active in a repeat. Potency is the fitted concentration of half-maximal effect.

A first look:
no.	SMILES	EPAC2 antag
1	CCOC(=O)N1CCN(Cc2ccc3c(c2)CN(C(=O)c2cc(-c4ccccc4)on2)CCO3)CC1	-17.4%
2	CCO[C@H](Cc1ccc(OCCc2ccc(OS(C)(=O)=O)cc2)cc1)C(=O)O	-26.9%
3	Cc1cccc(CNc2ncncc2-c2ccccc2C(F)(F)F)c1	-24.7%
4	CCCCCCCCCCCC(=O)N(CCO)CCO	-25.1%
5	NC(=O)C[C@H](NC(=O)Cc1ccc(O)cc1O)C(=O)O	-7.3%&-2.5%
6	O=C1CCC[C@@H]2Cc3nc4ccc(O)cc4cc3[C@@H]3CCN1[C@H]23	?

This part in full (from the top)
no.	SMILES	EPAC2 antag
1	CCOC(=O)N1CCN(Cc2ccc3c(c2)CN(C(=O)c2cc(-c4ccccc4)on2)CCO3)CC1	-17.4%
2	CCO[C@H](Cc1ccc(OCCc2ccc(OS(C)(=O)=O)cc2)cc1)C(=O)O	-26.9%
3	Cc1cccc(CNc2ncncc2-c2ccccc2C(F)(F)F)c1	-24.7%
4	CCCCCCCCCCCC(=O)N(CCO)CCO	-25.1%
5	NC(=O)C[C@H](NC(=O)Cc1ccc(O)cc1O)C(=O)O	-7.3%&-2.5%
6	O=C1CCC[C@@H]2Cc3nc4ccc(O)cc4cc3[C@@H]3CCN1[C@H]23	?
7	CC(C)(C)C1CCC(=O)N(CCC#N)CC1 (stereo unspecified)	-2.1%
8	N#Cc1cccc(-c2nc3cnc(N4CCOCC4)nc3n(C[C@H]3CCCO3)c2=O)c1	12.0%
9	CS(=O)(=O)N1CCC2(CCCN(Cc3ccccc3)C2)CC1	-16.5%
10	Cn1cccc1C(=O)N1CCC2(CC1)CCN(c1ccncc1)CC2	-4.8%
11	O=C1CCN(Cc2ccccc2)S(=O)(=O)c2ccc(F)cc21	-26.0%
12	CN(C)Cc1ccccc1-c1ccc2ncnc(NC3CCNCC3)c2c1	-10.8%
13	Cn1c(=O)c(-c2cccc(Cl)c2)nc2cncnc21	?
14	C[C@H](CCC(=O)NCC(=O)O)C1CC[C@H]2[C@H]3C(C[C@H](O)[C@]12C)[C@@]1(C)CC[C@@H](O)C[C@H]1C[C@H]3O (stereo partly specified)	-20.3%
15	CN1CCN(c2ncc3nc(-c4cc(F)cc(F)c4)c(=O)n(C)c3n2)CC1	7.6%
16	N#Cc1cccc(NC(=O)N2CC3(CCN(C(=O)c4cccc(F)c4)CC3)C2)c1	-26.6%
17	COC(=O)C1CCN(Cc2ccc3c(c2)CN(C(=O)c2ccnn2C)CCO3)CC1	-15.8%
18	CN1CCN(c2ncc3ncc(=O)n(C4CC4)c3n2)CC1	-38.1%
19	CCCCNC(=O)[C@@H]1CC=C[C@@H]2CCN(CCCC)C(=O)[C@@H]21	-0.4%
20	NCCCCC(N)C(=O)NC(Cc1ccc(O)cc1)C(=O)NC(CCCCN)C(=O)O (stereo unspecified)	-5.5%
21	COC(=O)CC1C(C)(C)C(OC(C)=O)C2[C@H](OC(C)=O)[C@]34O[C@]2(O)[C@]1(C)C3CC[C@]1(C)C4=CC(=O)OC1c1ccoc1 (stereo partly specified)	?
22	COc1ccc(-c2cn(Cc3ccc([N+](=O)[O-])cc3)nn2)cc1	-13.6%
23	COc1ccccc1-c1cncnc1N1CCN(C)CC1	-12.2%
24	CC(=O)/C(=C\c1ccccc1)CC(=O)O	3.8%
25	O=C(Nc1cccc(F)c1)N1CCC2(CC1)CCN(C(=O)c1cnccn1)CC2	-8.1%

Carrying on:
no.	SMILES	EPAC2 antag
26	CC(C)C[C@@H](CO)N1CCN(Cc2ccc(Br)cc2)CCC1=O	-12.1%
27	O=C(O)c1ccccc1Nc1cccc(OCc2ccc3ccccc3n2)c1	-27.3%&-32.2%
28	CN(C)c1ccc(C(=C2C=CC(=[N+](C)C)C=C2)c2c(O)c(S(=O)(=O)[O-])cc3cc(S(=O)(=O)O)ccc23)cc1	56.2µM*
29	COc1ccc(-n2c(=O)c(-c3cccs3)nc3cncnc32)cc1	-4.6%
30	COc1cc(=O)n2c(c1C(=O)NC(C)c1ccco1)CCN(C(=O)c1ccnc(Cl)c1)CC2 (stereo unspecified)	9.5%
31	Cc1occc1C(=O)Nc1cccc(-c2nc(CNC(=O)c3cc(-c4ccccc4)n[nH]3)c(C)o2)c1	-28.6%
32	COc1cc(-c2cc(C)c3cccc(OC)c3n2)cc2c1OCCN(C(=O)CC1NC(=O)c3ccccc31)C2 (stereo unspecified)	-3.3%
33	C[C@H]1O[C@H](O[C@H]2[C@H](O)[C@@H](O)[C@@H](O[C@H]3[C@H](O)[C@@H](O)[C@H](O)O[C@@H]3CO)O[C@@H]2CO)[C@H](O)[C@@H](O)[C@@H]1N[C@H]1C=C(CO)[C@@H](O)[C@H](O)[C@H]1O	1.8%
34	CCN(CC)CCN(C)C(=O)c1ccc(-c2ccccc2)nc1N(C)C	-35.7%
35	O=c1c(-c2ccccc2)nc2cnc(N3CCNCC3)nc2n1Cc1cccs1	-28.7%
36	Cc1cnc(CNc2cc(-c3ccccc3C)ncn2)cn1	-12.7%
37	Cc1ccc(C(=O)N2CCOc3ccc(CN4CCN(Cc5ccccn5)CC4)cc3C2)cc1	-32.0%
38	C/C1=C2N=C(/C=C3N=C(/C(C)=C4\[N-][C@@](C)([C@@H]5N=C1[C@](C)(CCC(=O)NCC(C)OP(=O)(O)O[C@H]1[C@@H](O)[C@@H](n6cnc7cc(C)c(C)cc76)O[C@@H]1CO)[C@H]5CC(N)=O)[C@@](C)(CC(N)=O)[C@@H]4CCC(N)=O)[C@@](C)(CC(N)=O)[C@@H]\3CCC(N)=O)C(C)(C)[C@@H]/2CCC(N)=O.CC(=O)O.[Co] (stereo partly specified)	79.4µM*
39	Oc1cc2c(cc1O)CN(C(=S)NCCc1ccc(Cl)cc1)CCC2	56.2µM*!
40	CN(C)CC/C=C1\c2ccccc2Sc2ccc(Cl)cc21	?
41	COc1cc(=O)n2c(c1C(=O)N(C)Cc1nonc1C)CCN(Cc1ccc(F)cc1)CC2	?
42	CCOC(=O)CCC(=O)O[C@H]1C(O[C@@H]2C(C)[C@H](O[C@H]3C[C@@](C)(OC)C(O)C(C)O3)C(C)C(=O)OC(CC)[C@@](C)(O)C(O)[C@H](C)C(=O)C(C)C[C@]2(C)O)OC(C)CC1N(C)C (stereo partly specified)	-11.4%
43	Cn1cnc2nc(NCCO)nc(NCc3ccccc3)c21	-8.1%
44	CC(=O)OCC(=O)[C@@]1(O)CCC2C3CCC4=CC(=O)CC[C@]4(C)C3[C@@H](O)C[C@@]21C (stereo partly specified)	-34.9%
45	NCCC[C@H](N)C(=O)O	4.0%
46	CC(C)c1c(C(=O)NCC2(N3CCCCC3)CCCC2)cnn1-c1nccc(-c2ccco2)n1	-8.7%
47	CCCCN1CC[C@H]2C=CC[C@@H](C(=O)NCc3ccc(OC)cc3)[C@H]2C1=O	-13.3%
48	CN(C)c1nc2c(Br)c(Br)c(Br)c(Br)c2[nH]1	-28.3%
49	CN(C)CC/C=C1/c2ccccc2COc2ccccc21	-6.8%
50	c1cncc(-c2ccc3ncnc(NC4CCNCC4)c3c2)c1	-12.6%

Next compounds follow:
no.	SMILES	EPAC2 antag
51	Oc1ccc(Cl)cc1Sc1cc(Cl)ccc1O	50.1µM*
52	O=C(Nc1cccc(F)c1)N1CCC2(CC1)CCN(C(=O)c1cccc(F)c1)CC2	-23.0%
53	CNC[C@@H]1CC[C@@H](N)[C@@H](O[C@H]2[C@H](O)[C@@H](O[C@H]3OC[C@](C)(O)[C@H](NC)[C@H]3O)[C@H](N)C[C@@H]2N)O1	12.2%
54	CC(=O)c1ccc(C(=O)NCC2Cc3cccc(-c4ncccn4)c3O2)cc1 (stereo unspecified)	-5.7%
55	COc1ccccc1N1CCN(c2nc(CNC(=O)c3cc(C)oc3C)nc3ccccc23)CC1	-5.6%
56	O=C(O)c1cc(=O)[nH]c(=O)[nH]1	-25.2%
57	O=C(c1cnsn1)N1CCOc2ccc(C(O)C(c3ccccc3)c3ccccc3)cc2C1 (stereo unspecified)	-11.4%
58	c1ccc(CNc2ncnc3ccc(-c4ccc5c(c4)OCO5)cc23)cc1	-24.1%
59	Cc1ccccc1C1(CC(=O)N2CCCCC2C)CC(=O)N(Cc2cccnc2)C1=O (stereo unspecified)	8.1%
60	c1ccc(CNc2nc(-c3cccnc3)nc3ccccc23)cc1	-15.8%
61	COc1cc2c(cc1OC)C(=O)N(C)CC2	-19.0%
62	N#CC[C@H](Cc1ccccc1)N1CC[C@@H](O)CCC1=O	12.2%
63	COC(=O)[C@H](CC(C)C)NS(=O)(=O)N(Cc1ccccc1)[C@@H](CC(C)C)C(=O)OC	?
64	CCCN1CCC(=O)N([C@H](CSc2ccccc2)Cc2ccccc2)CC1	-23.7%
65	COc1ccc(NC(=O)N2CC[C@@]3(CCCN(C(=O)c4csnn4)C3)C2)cc1	-6.1%
66	CCC1CN(CCNC(=O)c2cccnc2OC)Cc2cc(OC)ccc2O1 (stereo unspecified)	15.4%
67	Cc1cc(C(=O)Nc2ccccc2-c2nc(CNC(=O)c3sc(C)nc3C)c(C)o2)c(C)o1	2.0%
68	Cc1cccc(C)c1OCC(=O)N[C@@H](Cc1ccccc1)[C@@H](O)C[C@H](Cc1ccccc1)NC(=O)[C@H](C(C)C)N1CCCNC1=O	-16.6%
69	COc1ccc2c(c1)CCc1cnc(-n3ncc(C(=O)N(C)CC4CCCN(C)C4)c3C)nc1-2 (stereo unspecified)	-16.2%
70	CC(O)[C@@H](N)C(=O)O (stereo partly specified)	12.4%
71	CC(C)(O)CCC(O)[C@@](C)(O)C1CC[C@]2(O)C3=CC(=O)C4CC(O)C(O)C[C@]4(C)C3CC[C@]12C (stereo partly specified)	-15.8%
72	NC(C(=O)NC1C(=O)N2C(C(=O)O)=C(Cl)CSC12)c1ccccc1 (stereo unspecified)	13.3%
73	CO[C@@H]1[C@@H](O[C@@H]2O[C@H](C)[C@@H](O[C@H]3C[C@@](C)(O)[C@@H](OC(=O)CC(C)C)[C@H](C)O3)[C@H](N(C)C)[C@H]2O)[C@@H](CC=O)C[C@@H](C)[C@@H](O)/C=C/C=C/C[C@@H](C)OC(=O)C[C@H]1O	-4.4%&-10.3%
74	OCc1ccc(-c2nn(Cc3ccccc3)c3ccccc23)o1	-25.3%
75	CN(C)c1ccc(-c2nccc(NCCN3CCOCC3)n2)cc1	-9.8%

2 of these compounds in another layout.
59. Cc1ccccc1C1(CC(=O)N2CCCCC2C)CC(=O)N(Cc2cccnc2)C1=O (stereo unspecified)
- EPAC2 antag = 8.1%
60. c1ccc(CNc2nc(-c3cccnc3)nc3ccccc23)cc1
- EPAC2 antag = -15.8%

(cont.)
no.	SMILES	EPAC2 antag
76	COc1ccc(-c2cccc3c2OC(CNC(=O)c2ccc4c(c2)OCO4)C3)nn1 (stereo unspecified)	-16.9%
77	O=C(Nc1ccc(Oc2ccc(Cl)cc2)c(Cl)c1)c1cc(I)cc(I)c1O	-17.6%
78	CC(=O)NCC(=O)NCC1Cc2cc(C)cc(-c3ccccn3)c2O1 (stereo unspecified)	-13.6%
79	COc1ccc2[nH]cc(CCNc3ccnc(-c4ccoc4)n3)c2c1	89.1µM*
80	COc1cccc(Nc2ncc3ncc(=O)n(Cc4ccc(F)cc4)c3n2)c1	-19.0%
81	Cc1cccc(CNc2ncnc3ccc(-c4cccnc4)cc23)c1	-45.6%
82	Cc1ccccc1Cc1nc2cccnc2n1C1CCN(C(=O)CC2NC(=O)c3ccccc32)CC1 (stereo unspecified)	-8.4%
83	CS(=O)(=O)N1CCC[C@@]2(CCN(C(=O)Nc3ccccc3)C2)C1	-28.8%
84	O=C(c1csnn1)N1CCC[C@@]2(CCN(Cc3cc(C(F)(F)F)cc(C(F)(F)F)c3)C2)C1	-53.0%
85	O=c1onc2n1-c1cc(Br)ccc1OC2	9.3%
86	N#CCCn1c(=O)cnc2cnc(Oc3cccc(Cl)c3)nc21	-18.3%
87	CC(C)C[C@@H](NC(=O)OCC1c2ccccc2-c2ccccc21)C(=O)O	-28.0%
88	COc1ccc2[nH]cc(CCNc3ccnc(-c4cccc(C#N)c4)n3)c2c1	-29.6%
89	N#Cc1ccc(CN2CCCC3(CCN(C(=O)c4cnccn4)CC3)C2)cc1	-12.2%
90	COc1cc(=O)n2c(c1C(=O)NC(C)c1ccco1)CCN(C(=O)c1ccc(F)cc1Cl)CC2 (stereo unspecified)	-2.7%
91	NC(C(=O)O)[C@H](O)C(=O)O (stereo partly specified)	0.7%
92	CN1[C@@H]2CC[C@H]1CC(OC(=O)c1c[nH]c3ccccc13)C2 (stereo partly specified)	2.6%
93	COc1ccc(Oc2ncc3nc(-c4ccc(Cl)cc4)c(=O)n(CCC#N)c3n2)cc1	-26.5%
94	CCCCN1CCC[C@@H]1CNC(=O)c1cc(C#N)c2ccccc2c1OC	-16.4%
95	CCN1CCCC1CNC(=O)c1cnn(-c2nccc(-c3ccccc3OC)n2)c1-c1ccco1 (stereo unspecified)	-11.4%
96	Cc1cc2c(cc1Cl)N(C(=O)Nc1ccc(Oc3cccnc3C)nc1)CC2	-9.9%
97	Cc1cnc(SCc2ccccn2)nc1C1CCCN(C(=O)c2ccc3c(c2)OCO3)C1 (stereo unspecified)	-36.9%
98	Cn1c(=O)[nH]c2nc[nH]c2c1=O	-0.7%
99	Cc1cc(O)c2c(c1)C(=O)c1cc(O)cc(O)c1C2=O	?
100	C=CCSCC1Nc2cc(Cl)c(S(N)(=O)=O)cc2S(=O)(=O)N1 (stereo unspecified)	12.8%
101	CN(C)c1ncc2nc(CCc3ccccc3)c(=O)n(C3CC3)c2n1	-33.6%
102	CCC(C)[C@H]1COCCS(=O)(=O)N1Cc1ccc(Br)cc1 (stereo partly specified)	10µM*

Screens from PubChem.

An excerpt (hit frequency here may not be typical).
